FGF22 binding: FGF22 (human) thermal shift binding; calls only at 9.99 µM; actives 1.5% (n = 340,000); recombinant FGF22 thermal shift, SYPRO orange fluorescence; percent of sucrose octasulfate shift, DMSO zero;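 active = melting point raised past a set limit in the mean and every replicate; three in four hits are not shown here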
Target sequence (Q9HCT0 whole entry, looked up): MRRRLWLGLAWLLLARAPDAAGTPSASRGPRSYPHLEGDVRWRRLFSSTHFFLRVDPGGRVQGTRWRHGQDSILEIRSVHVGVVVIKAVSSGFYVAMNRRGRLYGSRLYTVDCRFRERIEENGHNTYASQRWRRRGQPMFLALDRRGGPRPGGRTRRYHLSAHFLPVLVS
AF4-AF9 inh: inhibitors of human MLL-AF4/AF9 interaction | P42568 | AlphaScreen, biotin-AF4 peptide binding to FLAG-AF9 | inhibition, % at 10 µM | actives 0.47% (n = 350,000) | AID 651704;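 active = every replicate reaching a set inhibition limit, whatever the replicate mean, cut at about 25% in these data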;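 note: 0% = plate neutral control median and 100% = total signal loss; the record names both 10 and 1 µM as test concentration; the first replicate is given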
Target sequence (P42568 whole entry, looked up): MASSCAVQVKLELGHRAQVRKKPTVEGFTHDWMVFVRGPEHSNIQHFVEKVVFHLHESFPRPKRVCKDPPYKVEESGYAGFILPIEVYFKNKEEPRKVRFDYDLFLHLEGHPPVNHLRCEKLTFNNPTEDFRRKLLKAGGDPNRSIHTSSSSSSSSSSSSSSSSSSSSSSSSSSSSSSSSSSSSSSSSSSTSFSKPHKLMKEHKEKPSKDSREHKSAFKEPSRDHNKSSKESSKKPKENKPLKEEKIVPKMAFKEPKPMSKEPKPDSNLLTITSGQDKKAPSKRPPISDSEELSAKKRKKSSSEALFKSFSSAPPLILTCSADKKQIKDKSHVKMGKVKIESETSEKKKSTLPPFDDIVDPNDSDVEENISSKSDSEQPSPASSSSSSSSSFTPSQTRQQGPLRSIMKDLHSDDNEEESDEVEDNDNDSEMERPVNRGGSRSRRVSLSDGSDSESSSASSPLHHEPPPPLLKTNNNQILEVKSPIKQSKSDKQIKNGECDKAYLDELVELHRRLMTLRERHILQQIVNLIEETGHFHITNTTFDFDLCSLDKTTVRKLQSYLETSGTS
Ecoli rRNA inh: inhibitors of bacterial rRNA selective over humanized ribosomes; E. coli WT GFP vs humanized-ribosome RFP mutants, fluorescence, 24 h; active compounds read low; DMSO median 0, no signal -100; GFP signal change (wild-type ribosome), % (concentration not given with the values); actives 1.6% (n = 350,000);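 active = significant combined selectivity score with lowered wild-type GFP, culture density cut under 30%, mutant RFP and density less affected; inactive = any of these conditions unmet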; note: one replicate is shown; some compounds called inactive have numbers as strong as hits
Ecoli rRNA inh OD600: further read-out of Ecoli rRNA inh, marked with its call; OD600 change, %; measured here: OD600 growth;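 optical density of the mix in the first replicate; 0 = DMSO median and -100 = no signal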
Ecoli rRNA inh RFP: recorded beside Ecoli rRNA inh, whose call it bears; RFP signal change, %; measured here: RFP humanized mutant strains;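 first replicate; 0 = DMSO median and -100 = no signal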
Starred values were filed as active, the others as inactive; i = inactive; x = not tested or not shown; + = active, no number; & = joins results of further samples. Some of the compounds tested; rates above refer to the full screens.

Field names – A = FGF22 binding; B = AF4-AF9 inh; C = Ecoli rRNA inh; D = Ecoli rRNA inh OD600; E = Ecoli rRNA inh RFP
Molecule: CC12Nc3ccccc3C(=O)N1Cc1cnnn1-c1ccccc12 (stereo not drawn)
  A: i; B: -1.9; C: 1.0; D: -0.7; E: -6.8

Molecule: CS(=O)(=O)c1ccc(C2=C(CNC(=O)c3ccncc3)[C@H]3CC[C@@H](C2)N3Cc2ccccc2)cc1
  A: i; B: 0.4; C: 13.8; D: 12.2; E: 0.2

Molecule: CCCCn1nnnc1C(CCc1ccccc1)N1CCC2(CC1)C(=O)NCN2c1ccccc1 (stereo not drawn)
  A: i; B: -4.9; C: 4.7; D: 1.0; E: 1.6

Molecule: CN1C2CNC(=O)CC1C1CCC2C1 (stereo not drawn)
  A: i; B: 1.3; C: 18.4; D: 10.3; E: 3.1

Molecule: O=C1NC(=O)C(=Cc2ccccc2[N+](=O)[O-])C(=O)N1
  A: i; B: -1.6; C: 17.0; D: 11.0; E: 2.4

Molecule: COc1ccc(C#Cc2ccc([C@H]3[C@H]4CN(C(=O)Cc5ccccc5)CCCCN4[C@H]3CO)cc2)cc1
  A: i; B: 1.4; C: -1.6; D: 4.8; E: -0.8

Molecule: COc1cc2c(ccc3c4cc(OC)c(OC)cc4c[n+](C)c23)cc1O
  A: x; B: -3.1; C: -9.8; D: -9.9; E: -7.9

Molecule: O=c1c2ccccc2nc(CBr)n1-c1ccc(Cl)cc1
  A: i; B: -1.5; C: 11.8; D: 8.3; E: -0.1

Molecule: O=C(NCC1=C(c2ccc3ccccc3c2)C[C@@H]2CC[C@H]1N2Cc1ccco1)c1nccs1
  A: i; B: 12.1; C: -0.4; D: 4.1; E: 2.4

Molecule: C/C=C/c1ccc([C@@H]2[C@H]3CN(C(=O)Cc4ccncc4)CCCCN3[C@H]2CO)cc1
  A: +; B: -9.5; C: 6.7; D: 1.8; E: -0.5

Molecule: C=CCCC1(CC)C(=O)NC(=S)NC1=O
  A: i; B: -3.3; C: 7.2; D: 12.7; E: -6.5

Molecule: O=C1CNC[C@H]2[C@H](c3ccc(Br)cc3)[C@@H](CO)N12
  A: i; B: -2.7; C: 2.0; D: 6.7; E: -3.4

Molecule: CCOC(=O)[C@]12Cc3cc(OC)ccc3[C@H]1N(C1CCCCC1)C(=O)c1ccccc12
  A: i; B: -3.1; C: -52.5; D: -77.5; E: -15.1

Molecule: Cc1cc(C)c(C)c(C(O)(C(=O)O)c2ccccc2)c1C (stereo not drawn)
  A: i; B: -0.3; C: -1.0; D: 4.1; E: -1.5

Molecule: Cc1ccccc1S(=O)(=O)N1[C@@H]2Cn3c(ccc(-c4cccnc4)c3=O)[C@H]1[C@@H](C(=O)O)[C@@H]2CO
  A: i; B: -0.1; C: 2.9; D: 6.3; E: 2.8

Molecule: O=C1NCN(c2ccccc2)C12CCN(C(CCc1ccccc1)c1nnnn1-c1ccc3c(c1)OCCO3)CC2 (stereo not drawn)
  A: i; B: 2.3; C: -2.8; D: -1.0; E: -3.7

Molecule: O=C1CC(N2CC2)C(=O)N1c1ccccc1 (stereo not drawn)
  A: i; B: 0.5; C: 23.0; D: 28.0; E: 0.1

Molecule: CC1=NNC(=O)C1Br (stereo not drawn)
  A: i; B: -7.9; C: 12.8; D: 9.6; E: 0.2

Molecule: Cc1ccc(OC(=O)N(C)C[C@H]2OCc3ccccc3-c3c(n(C)c4ccccc34)C(=O)N([C@@H](C)CO)C[C@H]2C)cc1
  A: i; B: 1.7; C: -0.4; D: 2.7; E: -2.4

Molecule: N#Cc1cccc(-c2ccc([C@H]3[C@H](CO)N4CCCCN(C(=O)Cc5ccncc5)C[C@@H]34)cc2)c1
  A: i; B: -1.9; C: -2.7; D: -4.2; E: 0.6

Molecule: CCOC(=O)CC1c2ccccc2-n2nncc2CN1Cc1ccc(OC)cc1 (stereo not drawn)
  A: i; B: -0.9; C: -9.4; D: -12.1; E: -3.5

Molecule: C[C@H](CO)N1C[C@H](C)[C@H](CN(C)C(=O)Oc2cccc3ccccc23)OCc2cnnn2CCCC1=O
  A: i; B: -2.6&-2.2&0.5; C: 24.4&2.9; D: 8.4&5.0; E: 4.8&-0.7

Molecule: COc1ccc(-c2ccc([C@@H]3[C@@H](CO)N4CCCCN(C(=O)Cc5ccncc5)C[C@H]34)cc2)cc1
  A: i; B: -1.4; C: 0.3; D: 0.7; E: 4.0

Molecule: CSCCC(c1nnnn1C(C)(C)C)N1CCC(n2c(=O)[nH]c3ccccc32)CC1 (stereo not drawn)
  A: i; B: 14.0; C: -8.4; D: -12.6; E: -0.6

Molecule: O=S(=O)(O)C(=Cc1ccccc1)c1ccccc1 (tested in a mixture with another compound)
  A: i; B: -56.3; C: 11.9; D: 13.9; E: 2.8

Molecule: CCOC(=O)[C@]12Cc3cc(C)ccc3[C@H]1N(C)C(=O)c1cc(OC)ccc12
  A: i; B: -8.3; C: -72.0; D: -77.0; E: -25.0

Molecule: CC=Cc1ccc2n(c1=O)C[C@@H]1[C@@H](CO)[C@H](C(=O)N(C)C)N[C@H]21 (mixture of isomers)
  A: i; B: -0.2; C: 1.5; D: 4.6; E: -0.2

Molecule: C/C=C/c1ccc([C@@H]2[C@H](CO)N3CCCCN(C(=O)Cc4ccncc4)C[C@@H]23)cc1
  A: i; B: -7.6; C: 6.8; D: 5.2; E: 0.3

Molecule: CC(=O)OC1C(=O)OCC23CCC4(C)OC4C2OC2CC(OC(=O)C=CC=CC(=O)OCCC1C)C3(C)C21CO1 (stereo not drawn)
  A: i; B: -0.4; C: -1.5; D: -2.5; E: -3.1

Molecule: O=C(O)[C@H]1[C@H](CO)[C@H]2Cn3c(ccc(-c4cccc(F)c4)c3=O)[C@@H]1N2CCc1ccccc1
  A: i; B: 2.1; C: -2.3; D: 2.7; E: -1.8

Another view of some results above:
Compound: N#Cc1cccc(-c2ccc([C@H]3[C@H](CO)N4CCCCN(C(=O)Cc5ccncc5)C[C@@H]34)cc2)c1
  FGF22 binding: i
  AF4-AF9 inh: -1.9
  Ecoli rRNA inh: -2.7
  Ecoli rRNA inh OD600: -4.2
  Ecoli rRNA inh RFP: 0.6

Compound: CCOC(=O)CC1c2ccccc2-n2nncc2CN1Cc1ccc(OC)cc1 (stereo not drawn)
  FGF22 binding: i
  AF4-AF9 inh: -0.9
  Ecoli rRNA inh: -9.4
  Ecoli rRNA inh OD600: -12.1
  Ecoli rRNA inh RFP: -3.5

Compound: C[C@H](CO)N1C[C@H](C)[C@H](CN(C)C(=O)Oc2cccc3ccccc23)OCc2cnnn2CCCC1=O
  FGF22 binding: i
  AF4-AF9 inh: -2.6&-2.2&0.5
  Ecoli rRNA inh: 24.4&2.9
  Ecoli rRNA inh OD600: 8.4&5.0
  Ecoli rRNA inh RFP: 4.8&-0.7

Compound: COc1ccc(-c2ccc([C@@H]3[C@@H](CO)N4CCCCN(C(=O)Cc5ccncc5)C[C@H]34)cc2)cc1
  FGF22 binding: i
  AF4-AF9 inh: -1.4
  Ecoli rRNA inh: 0.3
  Ecoli rRNA inh OD600: 0.7
  Ecoli rRNA inh RFP: 4.0

Further records.
Field names – A = FGF22 binding; B = AF4-AF9 inh; C = Ecoli rRNA inh; D = Ecoli rRNA inh OD600; E = Ecoli rRNA inh RFP
Molecule: O=C1NC(=S)NC(=O)C1=Cc1cccc2cc3ccccc3cc12
  A: i; B: 8.5; C: 4.9; D: -7.4; E: 1.8

Molecule: O=C(O)[C@@H]1[C@@H](CO)[C@@H]2Cn3c(ccc(-c4cccc(F)c4)c3=O)[C@H]1N2CCc1ccccc1
  A: i; B: 3.7; C: -3.2; D: -3.1; E: -2.2

Molecule: CCn1cc(CN2CCCC(C(=O)c3cccc(C(F)(F)F)c3)C2)cn1 (stereo not drawn)
  A: i; B: 0.1; C: 15.1; D: -12.3; E: 2.1

Molecule: CCN1[C@@H]2Cn3c(ccc(-c4ccc(OC)cc4)c3=O)[C@H]1[C@@H](C(=O)OC)[C@@H]2CO
  A: i; B: 1.6; C: -2.8; D: -11.0; E: -1.8

Molecule: CC(C)CC#Cc1ccc([C@@H]2[C@H]3CN(C(=O)Cc4ccccn4)CCCCN3[C@H]2CO)cc1
  A: i; B: 1.0; C: -28.2; D: -47.4; E: 1.7

Molecule: CC(=O)Nc1ccc(S(=O)(=O)N2Cc3cnnn3-c3ccccc3C2C#N)cc1 (stereo not drawn)
  A: i; B: -4.5; C: 14.2; D: 8.2; E: 8.9

Molecule: COC(=O)[C@@H]1N[C@@H]2c3ccc(C4=CCCC4)c(=O)n3C[C@@H]2[C@H]1CO
  A: i; B: 0.3; C: 0.8; D: 2.0; E: -0.5

Molecule: COC(=O)[C@H]1[C@H](CO)[C@H]2Cn3c(ccc(/C=C/c4ccccc4)c3=O)[C@@H]1N2CC1CCCC1
  A: i; B: -50.5; C: -21.1; D: -56.9; E: 36.9

Molecule: CCOC(=O)[C@]12Cc3c(cc(OC)c(OC)c3OC)[C@H]1N(C1CCCCC1)C(=O)c1ccccc12
  A: i; B: 0.6; C: -48.0; D: -69.9; E: -15.5

Molecule: O=C(Cc1cccnc1)N1CCCCN2[C@H](C1)[C@@H](c1ccc(C#CC3(O)CCCC3)cc1)[C@@H]2CO
  A: i; B: -4.2; C: 3.1; D: 9.9; E: 0.1

Molecule: COC(=O)C1=C(c2ccc(OCc3ccccc3)cc2)C[C@@H]2CC[C@H]1N2C(=O)NCc1ccc2[nH]ccc2c1
  A: x; B: 1.0; C: 1.1; D: 5.8; E: -5.4

Molecule: N#Cc1cccc(-c2ccc([C@@H]3[C@@H](CO)N4CCCCN(C(=O)Cc5ccncc5)C[C@@H]34)cc2)c1
  A: i; B: -6.9; C: -0.8; D: -1.0; E: 1.4

Molecule: COc1ccc(C(c2nnnn2-c2ccc(OC)cc2)N2CCC3(CC2)C(=O)NCN3c2ccccc2)cc1 (stereo not drawn)
  A: i; B: 5.6; C: -2.6; D: 3.8; E: 7.0

Molecule: CCCNC(=O)[C@H]1[C@H](CO)[C@H]2Cn3c(cccc3=O)[C@@H]1N2CCC
  A: i; B: -0.9; C: 3.3; D: 4.9; E: 1.4

Molecule: CC12CCC3c4ccc(OC(=O)N(CCCl)CCCl)cc4CCC3C1CCC2O (stereo not drawn)
  A: i; B: -1.0; C: -3.7; D: -44.9; E: 20.9

Molecule: Cc1ccc(OC(=O)N(C)C[C@@H]2OCc3ccccc3-c3c(n(C)c4ccccc34)C(=O)N([C@H](C)CO)C[C@H]2C)cc1
  A: i; B: 7.1; C: 12.1&-0.4; D: 8.4&4.8; E: 1.2&0.5

Molecule: O=C(Cc1ccccc1)N1CC2(C1)[C@H](c1ccccc1)[C@@H](CO)N2Cc1cccc(Cl)c1
  A: i; B: 2.8; C: -16.6; D: -46.5; E: 1.6

Molecule: COC(=O)[C@@H]1[C@@H](CO)[C@@H]2Cn3c(ccc(-c4cccc(OC)c4)c3=O)[C@H]1N2CC1CC1
  A: i; B: 1.2; C: -2.9; D: -15.5; E: -1.2

Molecule: N#Cc1cccc(-c2ccc([C@H]3[C@H]4CN(C(=O)Cc5ccccc5)CCCCN4[C@H]3CO)cc2)c1
  A: i; B: -1.7; C: 3.2; D: -23.1; E: -0.4

Molecule: O=C(Cc1ccncc1)N1CCCCN2[C@H](CO)[C@H](c3ccc(C#Cc4ccccc4F)cc3)[C@H]2C1
  A: i; B: -2.0; C: -7.6; D: -33.2; E: 7.1

Molecule: O=C(Cc1cccnc1)N1CCCCN2[C@H](CO)[C@@H](c3ccc(C#CC4CCCC4)cc3)[C@@H]2C1
  A: i; B: -1.1; C: -56.5; D: -74.6; E: -4.8

Molecule: O=C(NCCN1CCC2(CC1)C(=O)NCN2c1ccccc1)c1cccs1
  A: i; B: 1.4; C: 20.5; D: 15.9; E: 0.4

Molecule: COc1ccc(CN2Cc3cc(N4CCOCC4)ccc3-n3nncc3C2)cc1
  A: i; B: 1.8; C: -3.1; D: -10.9; E: -1.1

Molecule: COc1ccc2c(c1)C1OCCNC1CC2 (stereo not drawn)
  A: i; B: -2.4; C: 6.1; D: 3.3; E: -1.0

Molecule: CC(=O)OC1CC2(O)C3CCC4CC(O)CCC4(C)C3CCC2(C)C1C1=CC(=O)OC1 (stereo not drawn)
  A: i; B: -1.5; C: -0.3; D: 4.4; E: -3.6

Molecule: CCOC(=O)[C@]12Cc3ccccc3[C@H]1N(C)C(=O)c1cc(OC)ccc12
  A: i; B: -2.2; C: -20.3*; D: -7.5*; E: -0.1*

Molecule: Nc1ccc(Cl)c(Cl)c1
  A: i; B: 0.9; C: 3.7; D: 7.6; E: -2.4

Molecule: COC(=O)[C@@H]1[C@@H](CO)[C@@H]2Cn3c(ccc(C4=CCCCC4)c3=O)[C@H]1N2C(=O)Cc1ccccn1
  A: i; B: 0.4; C: -3.0; D: -4.0; E: -2.4

Molecule: COc1ccc2c(c1)C1(C)CCN(C)CC(C1)C2O (stereo not drawn)
  A: i; B: 4.7; C: 10.7; D: 9.4; E: 1.4

Molecule: COc1ccc(CN2Cc3cc(-c4cccc(F)c4)ccc3-n3nncc3C2)cc1
  A: i; B: 2.0; C: -13.7; D: -8.0; E: 6.1

Screening results (PubChem)
